gsp antag – antagonists of gsp mutant (McCune-Albright syndrome) | gsp-mutant cells, cAMP HTRF, 30 min; control for the full effect not named in the record | Potency, µM (doses to about 76.9 µM), inactives show at the highest dose activity change, negative = inhibition, most hits filed as inhibitors | 0.4% of 340,000 active; active = falling curve of any shape with a large fitted effect; inconclusive = falling curve, mostly with a smaller effect; inactive = flat or rising curve; cell line not stated here;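 note: intracellular cAMP measured with PDE inhibitor Ro 20-1724 present during compound exposure; potency is the fitted concentration of half-maximal effect; % is set by controls: 0 for no effect and ±100 for the full control effect; nearly all actives have a fitted effect of over 65% in size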
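Measurement of cellular cAMP by homogeneous time-resolved fluorescence following a 30 min compound exposure at 37C. The PDE inhibitor […] was present throughout; the assay buffer was DPBS with 0.05% BSA and 0.005% Tween 20.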
gsp ag – gsp mutant agonism | gsp mutant cells, cAMP HTRF, 30 min; control for the full effect not named in the record | 0.13% of 340,000 active | Potency, µM (titrated, usually from 76.9 µM), inactives show at the highest dose activation (cAMP increase), hits mostly activators; active = well fitted activation curve with a large enough effect; inconclusive = small, poorly fitted or top-dose-only effect, or another doubt; inactive = no such curve, though single readings can be large or run the other way; cell line not stated here;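 note: phosphodiesterase inhibitor Ro 20-1724 added with compounds to block cAMP breakdown; potency is the fitted concentration of half-maximal effect; nearly all actives have a fitted effect of over 60% in size; about a fifth of the inactives were tested at one dose only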
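Cells in DMEM/10% FBS with G418 were pretreated with compounds in DMSO plus […] (300 uM stock) for 30 min at 37C. cAMP was measured by HTRF (cAMP-d2 plus anti-cAMP antibody-K) after 30 min at room temperature.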
TRPV1 potentiator – human TRPV1 potentiation; Q8NER1; TRPV1-expressing cells, Fluo-8 calcium influx, capsaicin EC20 potentiation; host cell line not named in the record; control for the full effect not named in the record; potentiation, % at 8.33 µM; 0.02% of 320,000 active; active means potentiation above 80%; inconclusive means 30% to 80%; inactive means below 30%; note: 0% is about no effect
Target sequence (Q8NER1 whole entry, looked up): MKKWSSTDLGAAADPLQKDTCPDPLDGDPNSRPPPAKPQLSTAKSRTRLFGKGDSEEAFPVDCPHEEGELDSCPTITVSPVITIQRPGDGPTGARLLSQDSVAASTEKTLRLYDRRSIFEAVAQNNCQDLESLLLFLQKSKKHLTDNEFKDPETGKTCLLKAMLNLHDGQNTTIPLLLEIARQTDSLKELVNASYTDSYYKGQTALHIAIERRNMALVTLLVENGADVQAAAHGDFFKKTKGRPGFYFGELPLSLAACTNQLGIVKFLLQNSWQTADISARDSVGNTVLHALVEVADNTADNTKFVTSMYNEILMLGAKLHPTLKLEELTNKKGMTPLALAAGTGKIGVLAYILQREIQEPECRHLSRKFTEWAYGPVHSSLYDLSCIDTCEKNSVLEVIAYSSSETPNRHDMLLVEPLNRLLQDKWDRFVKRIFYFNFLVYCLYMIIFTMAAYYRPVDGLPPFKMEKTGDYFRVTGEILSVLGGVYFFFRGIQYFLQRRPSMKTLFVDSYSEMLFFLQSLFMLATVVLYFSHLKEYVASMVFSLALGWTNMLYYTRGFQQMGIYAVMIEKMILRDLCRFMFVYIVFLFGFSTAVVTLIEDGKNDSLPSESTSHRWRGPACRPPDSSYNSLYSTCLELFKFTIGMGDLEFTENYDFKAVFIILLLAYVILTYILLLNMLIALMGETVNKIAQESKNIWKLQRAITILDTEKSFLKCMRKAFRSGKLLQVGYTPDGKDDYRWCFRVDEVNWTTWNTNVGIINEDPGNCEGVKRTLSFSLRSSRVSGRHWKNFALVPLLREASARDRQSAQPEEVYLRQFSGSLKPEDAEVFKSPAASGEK
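Cells expressing TRPV1 were dye-loaded with Fluo-8 and read kinetically: 10 s baseline, 3 min after compound (agonist portion), then 2 min after EC20 capsaicin (allosteric enhancer portion). Calcium-bound dye fluorescence at 480/520 nm.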
ClpP mod – qHTS Assay for Activators of ClpP. 1.9% of 340,000 active. ATP-dependent Clp protease proteolytic subunit (Bacillus subtilis (strain 168)), P80244. Potency, µM (highest dose often 57.5 µM), without a hit: at the top dose activity change, negative = active. purified B. subtilis ClpP, FRET peptide cleavage, 20 min. AID 651965, 2013; active = well fitted falling curve with a large enough effect; inconclusive = small, poorly fitted or top-dose-only effect; inactive = no such curve, though single readings can be large or run the other way; note: potency is the fitted concentration of half-maximal effect; the source files actives as falling curves though it sought activators and does not explain the sign; nearly all actives have a fitted effect of over 65% in size; many hits overshoot -100%
Target sequence (P80244 whole entry, looked up): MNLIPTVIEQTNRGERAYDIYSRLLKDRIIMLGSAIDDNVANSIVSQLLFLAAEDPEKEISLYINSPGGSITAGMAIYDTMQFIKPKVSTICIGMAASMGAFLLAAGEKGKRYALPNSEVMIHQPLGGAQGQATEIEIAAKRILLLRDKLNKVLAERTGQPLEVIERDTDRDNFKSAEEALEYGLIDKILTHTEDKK
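FRET quenching reversal measured ClpP activation: 10 microg/mL B. subtilis ClpP at pH 8 with the FRET-FV decapeptide, read at 430 nm after 320 nm excitation. The 20-min minus 0-min signal was scaled between DMSO/no-enzyme wells and ADEP (5.8 microM final).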
Menin MLL FP FL – menin-MLL binding inhibition, fluorescein peptide; FP activity change, % at 61.4 µM; Fluorescence polarization, fluorescein-MLL peptide displacement from menin; AID 1766; 290,000 tested, under 10 active; inconclusive = falling polarisation curve, or a change in total fluorescence; inactive = total fluorescence flat and polarisation flat or rising; no compound was filed as active; the % refers to the polarisation; negative = inhibition;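 note: % of control where 0% means no effect; inhibitors lower the polarisation; unlabelled MLL peptide was the positive control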
Sfp inh – inhibitors of Bacillus subtilis Sfp phosphopantetheinyl transferase; Q9F4F7; Biochemical Sfp PPTase activity, qHTS; 3.5% of 310,000 active; Potency, µM, inactives show max response, negative = inhibition, hits mostly inhibitors; AID 1490; active = well fitted inhibition curve with a large enough effect; inconclusive = small, poorly fitted or top-dose-only effect, or another doubt; inactive = no such curve, though single readings can be large or run the other way;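 note: the enzyme is Sfp with the accession as filed and its product quenches rhodamine fluorescence; potency is the fitted concentration of half-maximal effect; 0% = enzyme reaction without inhibitor and -100% = no enzyme wells; top concentration of the series not given in the record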
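Fluorescence-quenching assay: 15 nM Sfp-PPTase preincubated 15 min at room temperature with compound, then 5 uM rhodamine-CoA and 12.5 uM BHQ-2-labelled YbbR peptide added. Fluorescence (ex 525/em 598 nm) read at start and after 30 min; difference gives rate.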
TRPML1 inh – blocks the human TRPML1 channel; activity change, negative = inhibition, % (test concentration not listed); AID 624415; TRPML1-inducible cells, Ca2+ dye fluorescence, FDSS; hits give low values; inhibition of EC80 agonist-evoked calcium signal; Q9GZU1; 0.02% of 390,000 active; in the data active means activity change below about -50%; inconclusive means about -30% to -50%; inactive means above about -30%;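 note: stimulus is agonist 54-4 at its EC80 concentration; % is set by controls: 0 for no effect and ±100 for the full control effect; compound concentration not given in the record; the text of the record puts the active cut at -80%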
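Tet-induced TRPML1-DL cells loaded with Ca8 no-wash calcium dye were read kinetically on FDSS. Compound addition was followed by EC80 agonist 54-4 (4 uM final); inhibition was read over 110 s.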
* hit, by the source's call; [ ] = dose if it differs, or a comment. This is a random part of the collection; any-hit rate near 4.9%.

CC(=O)N(CCC1(C(C)C)CCOC(C)(C)C1)C(C)c1cccs1 (stereo not given) was read as gsp antag 0.5%, gsp ag -1.4%[15.4 µM], TRPV1 potentiator -0.5, Menin MLL FP FL 0.4, Sfp inh 5.2% and TRPML1 inh 1.5.
`Cc1ccc([C@@H]2C[C@H]3[C@@H](CN2S(=O)(=O)c2ccc(Cl)cc2)C(=O)C[C@@H](c2ccccc2)N3S(=O)(=O)c2ccc(C)cc2)cc1` gave gsp ag inconclusive, ClpP mod -0.9% and TRPML1 inh -4.7.
`N#C/C(=C\c1cccc([N+](=O)[O-])c1)C(=O)NCc1cccnc1` gave gsp antag 19.0%, gsp ag 7.3%[15.4 µM], TRPV1 potentiator -0.6, ClpP mod 0.9%, Menin MLL FP FL -0.1, Sfp inh inconclusive and TRPML1 inh 1.6.
CC(=O)N1CCCC(C(=O)c2ccc3c4c(cccc24)CC3)C1 (stereo not given) was read as gsp antag -6.2%, gsp ag -2.9%, TRPV1 potentiator -19.6, ClpP mod 4.6%, Menin MLL FP FL -1.5, Sfp inh -3.8% and TRPML1 inh 23.4.
`CCc1cc2c(SCC(=O)c3cccs3)ncnc2s1` gave gsp antag -18.1%, gsp ag -17.4%, TRPV1 potentiator -14.8, ClpP mod -3.8%, Menin MLL FP FL 1.5, Sfp inh -6.7% and TRPML1 inh -9.7.
COc1ccccc1/C=C/C(=O)c1ccc(NC(C)=O)cc1 was read as gsp antag -7.0%, gsp ag -1.9%, TRPV1 potentiator 3.9, ClpP mod -2.0%, Menin MLL FP FL 5.5, Sfp inh -10.2% and TRPML1 inh -17.7.
For COc1ccc(C(=O)NNC(=O)CSc2nnc(COc3ccccc3)n2C)cc1 the results were gsp antag -7.9%, gsp ag 9.2%, TRPV1 potentiator 0.7, ClpP mod -1.8%, Menin MLL FP FL -2.5, Sfp inh 2.5% and TRPML1 inh 17.6.
CCOC(=O)C1CCN(C(=O)Nc2ccc(OC)c(OC)c2)CC1 was read as gsp antag 3.1%, gsp ag 9.0%, TRPV1 potentiator 3.3, ClpP mod 0.6%, Menin MLL FP FL 2.4, Sfp inh 6.9% and TRPML1 inh 4.2.
For Cc1ccc(C(c2nnnn2C(C)(C)C)N2CCc3ccccc3C2)cc1 (stereo not given) the results were TRPV1 potentiator 6.6, Menin MLL FP FL 2.4 and Sfp inh 6.6%.
NC(=O)CC(NC(=O)c1ccccc1)c1ccc(NCCc2cccc(F)c2)c([N+](=O)[O-])c1 (stereo not given) was read as gsp antag -17.8%, gsp ag -17.2%, TRPV1 potentiator 29.2, ClpP mod 0.9%, Menin MLL FP FL 0.7, Sfp inh -2.2% and TRPML1 inh 20.0.
`COc1ccc(NC(=O)c2sc3nc(C)nc(N4CCN(c5ccccn5)CC4)c3c2C)c(OC)c1` gave gsp antag -20.2%, gsp ag inconclusive, TRPV1 potentiator -4.0, ClpP mod 11.5%, Menin MLL FP FL -0.7, Sfp inh -8.3% and TRPML1 inh -21.1.
COCCNC(=O)c1c(CSc2ccc(Cl)cc2)noc1C(=O)NCc1ccccc1 was read as gsp antag -9.6%, ClpP mod -2.8% and TRPML1 inh 26.5.
For CC(C)Cn1c(CN2CCN(C(=O)c3ccco3)CC2)nc2c1c(=O)n(C)c(=O)n2C the results were gsp antag 6.8%, gsp ag 1.2%[15.4 µM], TRPV1 potentiator 10.8, Menin MLL FP FL 1.3, Sfp inh 17.9% and TRPML1 inh 4.2.
For CCOC(=O)C1=C(C)NC(=O)C1(NC(=O)c1cccnc1)C(F)(F)F (stereo not given) the results were gsp antag -0.8%, gsp ag inconclusive, TRPV1 potentiator 4.2, ClpP mod -1.1%, Menin MLL FP FL 0.9, Sfp inh 17.0% and TRPML1 inh -22.1.
CN(CC#CCC(c1ccccc1)c1ccccc1)C(C)(C)C was read as gsp antag -0.6%, gsp ag -0.6%, TRPV1 potentiator 8.2, ClpP mod -0.7%, Menin MLL FP FL -2.0, Sfp inh 5.3% and TRPML1 inh 54.7.
COc1ccc(-c2cc(C(F)(F)F)nc(SCC(=O)N3CC(C)OC(C)C3)n2)cc1OC (stereo not given) was read as gsp antag -3.3%, gsp ag -68.1%[inhibitor], TRPV1 potentiator 4.8, ClpP mod inconclusive, Menin MLL FP FL 4.4, Sfp inh 1.9% and TRPML1 inh -0.8.
Screening CC(C)NC(=O)C1CCN(C(=O)c2ccc(-c3ccccc3)cc2)CC1 returned gsp antag -1.8%, gsp ag 8.7%, TRPV1 potentiator -12.0, ClpP mod 1.0%, Menin MLL FP FL -9.5, Sfp inh 8.4% and TRPML1 inh -12.7.
CC(C)c1nc2ccc(C(=O)O)cc2[nH]1 was read as gsp antag 5.0%, gsp ag inconclusive, TRPV1 potentiator 2.1, ClpP mod -4.3%, Menin MLL FP FL -1.8, Sfp inh -9.1% and TRPML1 inh 22.1.
For Cc1cc(C)c(NC(=O)CCN2C(=O)c3ccccc3S2(=O)=O)c(C)c1 the results were gsp antag 8.0%, gsp ag 26.9%[15.4 µM], TRPV1 potentiator 17.7 and TRPML1 inh -10.6.
`O=C(NCCCN=C1NS(=O)(=O)c2ccccc21)c1ccc(S(=O)(=O)N2CCOCC2)cc1` gave gsp antag 11.8%, gsp ag -72.8%, TRPV1 potentiator 3.1, ClpP mod -2.9%, Menin MLL FP FL -0.8, Sfp inh 1.2% and TRPML1 inh -7.0.
Screening COc1ccc(/C=N/NC(=O)CN(c2ccc(OC)cc2)S(=O)(=O)c2ccccc2)cc1 returned gsp antag 15.6%, gsp ag 4.8%, TRPV1 potentiator 2.1, ClpP mod -0.2%, Menin MLL FP FL -0.2, Sfp inh 9.1% and TRPML1 inh -8.0.
For Cc1sc(NC(=O)c2ccco2)c(CN2CCC(C)CC2)c1C the results were gsp antag -11.8%, gsp ag 28.1%, TRPV1 potentiator -15.2, ClpP mod 2.0%, Menin MLL FP FL 0.5, Sfp inh 1.8% and TRPML1 inh 23.3.
Cc1ccc(NS(=O)(=O)c2csc(C(N)=O)c2)c(C)c1 was read as gsp antag -0.5%, gsp ag -30.1%[inhibitor], TRPV1 potentiator -22.0, ClpP mod 0.7%, Menin MLL FP FL -9.0, Sfp inh -1.3% and TRPML1 inh 4.4.
CCOC(=O)N1CCN(Cc2ccc3c(c2)OCO3)CC1 was read as gsp antag 4.5%, gsp ag 8.8%[15.4 µM], TRPV1 potentiator 23.6, ClpP mod 3.4%, Menin MLL FP FL 1.3, Sfp inh -15.4% and TRPML1 inh 9.6.
CCOC(=O)c1cccc(NC(=O)c2c(NCc3ccccc3)[nH]c(=O)[nH]c2=O)c1 was read as gsp antag 8.1%, ClpP mod -2.1% and TRPML1 inh 6.0.
Screening COc1ccc(-c2cnc3ncnn3c2N)cc1 returned gsp antag 2.6%, gsp ag 2.1%[15.4 µM], TRPV1 potentiator 3.8, Menin MLL FP FL 3.6, Sfp inh 10.8% and TRPML1 inh -13.0.
For CC(C(=O)O)n1c(C(F)(F)F)nc2ccccc21 (stereo not given) the results were gsp antag -1.6%, gsp ag -3.2%, TRPV1 potentiator 3.1, ClpP mod -0.8%, Menin MLL FP FL 1.0, Sfp inh 5.3% and TRPML1 inh -6.6.
`CCCOC(=O)c1ccc(NC(=O)Oc2ccccc2)cc1` gave gsp antag 19.7%, gsp ag -31.3%[inhibitor], TRPV1 potentiator 25.1, ClpP mod -1.2%, Menin MLL FP FL 1.7, Sfp inh -3.4% and TRPML1 inh 17.0.
`COc1cc(Nc2cc(C)nc3nc(C)nn23)cc(OC)c1OC` gave gsp antag 10.4%, gsp ag 15.8%, TRPV1 potentiator 4.5, ClpP mod 1.9%, Menin MLL FP FL 1.9, Sfp inh -2.5% and TRPML1 inh -12.1.
Screening CCCc1nc2ccccc2c2nc(N)nn12 returned gsp antag 14.2%, gsp ag 9.6%, TRPV1 potentiator -5.5, ClpP mod -26.6%, Menin MLL FP FL -0.9, Sfp inh 6.4% and TRPML1 inh -10.0.
Screening COc1ccc(C(=O)/C=C/C(=O)N(CC(=O)NC2CCCCC2)Cc2ccccc2)c(O)c1 returned gsp antag -2.2%, gsp ag -5.5%, TRPV1 potentiator -2.0, Menin MLL FP FL -4.0, Sfp inh 1.78µM* and TRPML1 inh -5.1.
For CN(C)c1ccc(C=C2C(=O)OC(C)(C)OC2=O)cc1 the results were gsp antag 3.6%, gsp ag 0.1%, TRPV1 potentiator -15.6, Menin MLL FP FL 5.9, Sfp inh -10.6% and TRPML1 inh 5.7.
`Cc1nn(-c2ccccc2)c(C)c1NC(=O)COC(=O)CCCOc1ccccc1` gave gsp antag 3.7%, gsp ag -5.5%, TRPV1 potentiator -13.5, ClpP mod -1.2% and TRPML1 inh 2.0.
Cc1cccc(OCc2nnc(SCC(=O)NC3CCCCC3)n2C)c1 was read as gsp antag -3.2%, gsp ag 17.7%, TRPV1 potentiator -13.0, Menin MLL FP FL -4.9, Sfp inh -7.9% and TRPML1 inh 7.3.
`C=CCn1c(Cc2ccc(OCC)cc2)nnc1SCC(N)=O` gave gsp antag 9.5%, gsp ag 11.2%, TRPV1 potentiator 2.8, ClpP mod 1.2%, Menin MLL FP FL 2.6, Sfp inh 15.0% and TRPML1 inh 3.5.
O=C(Nc1ccccc1N1CCCC1)C1CCN(C(=O)c2ccc(Cl)cc2)CC1 was read as gsp antag -9.5%, gsp ag -0.1%[15.4 µM], TRPV1 potentiator 0.0, ClpP mod -3.6% and TRPML1 inh -1.9.
Cc1ccc(S(=O)(=O)N2CCN(C(=O)c3c(C)nn(-c4ccccc4)c3Cl)CC2)cc1 was read as gsp antag inconclusive, gsp ag -42.8%[inhibitor], TRPV1 potentiator -20.0, ClpP mod -0.4%, Menin MLL FP FL 2.6, Sfp inh -7.5% and TRPML1 inh -4.0.

Screens from PubChem BioAssay.
